T cruzi repl = T. cruzi replication inhibition. T. cruzi beta-gal in NIH3T3, luminescence, 90 h. inhibition, % (concentration not given with the values). actives 1.4% (n = 300,000);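 active means mean inhibition across valid replicates above about 55%, limit read from the data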;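 further: signal also drops with host cell toxicity which is not excluded here; 0% = plate median of DMSO wells and 100% = zero luminescence signal; higher percent means less beta-gal luminescence so fewer parasites; stock transfer was 50 nL into about 50 µL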
rRNA inh HTS = inhibits bacterial ribosomal RNA function over humanized ribosomes | E. coli WT GFP vs humanized-ribosome RFP mutants, fluorescence, 24 h; active compounds read low; DMSO median 0, no signal -100 | actives 1.6% (n = 350,000) | GFP signal change (wild-type ribosome), % (no concentration beside the values);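 active means significant combined selectivity score with lowered wild-type GFP, culture density cut under 30%, mutant RFP and density less affected; inactive means any of these conditions unmet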; further: one replicate is shown; some compounds called inactive have numbers as strong as hits
Calb FLC = C. albicans growth modulation with fluconazole. C. albicans CaCi-2 (fluconazole-resistant clinical isolate) + fluconazole, Alamar Blue growth, 48 h. growth inhibition, % (concentration not given with the values). actives 0.57% (n = 300,000). AID 1979;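 active means most replicates above 75%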;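 further: all wells also contain fluconazole at 8 µg/ml as a sub-toxic cotreatment; 0% = median of DMSO wells and 100% = median of geldanamycin control wells; wells of about 8 µL received 7.5 nL stock; the first replicate is given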
Beta cell apopt = blocks beta cell apoptosis. actives 0.8% (n = 300,000). INS-1E cytokine-induced death, ATP luminescence, 48 h; percent of positive-control rescue, neutral wells zero. protection from apoptosis, % (test concentration not listed);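 active means all replicates at 75% or more, or half of them and the mean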;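 further: 0% = cytokine-treated negative control wells and 100% = positive control rescue; higher means more ATP so stronger rescue from cytokine killing; wells of about 40 µL received 100 nL stock; the first replicate is given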
ALR inh = human ALR oxidase inhibition via reduced H2O2; P55789; purified ALR, DTT oxidation, H2O2 HRP-luminol luminescence; inhibition, % (test concentration not listed); actives 3.8% (n = 290,000); AID 485317;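 active means mean and each replicate at 75% or more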;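 further: stock transfer was 7.5 nL into about 7.5 µL; 0% = neutral wells and 100% = wells with inactivated enzyme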
LANA-H2A inh = blocks KSHV LANA binding to histone H2A/H2B; inhibition, % (test concentration not listed); actives 0.6% (n = 320,000); cell-free LANA-H2A/H2B peptide, fluorescence polarization; AID 2629; Q9QR71; in the data active means inhibition mostly above about 10%, no sharp cut-off; inactive means mostly below about 6.7%;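 further: stock transfer was 7.5 nL into about 10 µL; 0% = median of vehicle wells and 100% = median of positive control wells; one replicate is shown; the record names a cut of 25% in any replicate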
Target sequence (Q9QR71 whole entry, looked up): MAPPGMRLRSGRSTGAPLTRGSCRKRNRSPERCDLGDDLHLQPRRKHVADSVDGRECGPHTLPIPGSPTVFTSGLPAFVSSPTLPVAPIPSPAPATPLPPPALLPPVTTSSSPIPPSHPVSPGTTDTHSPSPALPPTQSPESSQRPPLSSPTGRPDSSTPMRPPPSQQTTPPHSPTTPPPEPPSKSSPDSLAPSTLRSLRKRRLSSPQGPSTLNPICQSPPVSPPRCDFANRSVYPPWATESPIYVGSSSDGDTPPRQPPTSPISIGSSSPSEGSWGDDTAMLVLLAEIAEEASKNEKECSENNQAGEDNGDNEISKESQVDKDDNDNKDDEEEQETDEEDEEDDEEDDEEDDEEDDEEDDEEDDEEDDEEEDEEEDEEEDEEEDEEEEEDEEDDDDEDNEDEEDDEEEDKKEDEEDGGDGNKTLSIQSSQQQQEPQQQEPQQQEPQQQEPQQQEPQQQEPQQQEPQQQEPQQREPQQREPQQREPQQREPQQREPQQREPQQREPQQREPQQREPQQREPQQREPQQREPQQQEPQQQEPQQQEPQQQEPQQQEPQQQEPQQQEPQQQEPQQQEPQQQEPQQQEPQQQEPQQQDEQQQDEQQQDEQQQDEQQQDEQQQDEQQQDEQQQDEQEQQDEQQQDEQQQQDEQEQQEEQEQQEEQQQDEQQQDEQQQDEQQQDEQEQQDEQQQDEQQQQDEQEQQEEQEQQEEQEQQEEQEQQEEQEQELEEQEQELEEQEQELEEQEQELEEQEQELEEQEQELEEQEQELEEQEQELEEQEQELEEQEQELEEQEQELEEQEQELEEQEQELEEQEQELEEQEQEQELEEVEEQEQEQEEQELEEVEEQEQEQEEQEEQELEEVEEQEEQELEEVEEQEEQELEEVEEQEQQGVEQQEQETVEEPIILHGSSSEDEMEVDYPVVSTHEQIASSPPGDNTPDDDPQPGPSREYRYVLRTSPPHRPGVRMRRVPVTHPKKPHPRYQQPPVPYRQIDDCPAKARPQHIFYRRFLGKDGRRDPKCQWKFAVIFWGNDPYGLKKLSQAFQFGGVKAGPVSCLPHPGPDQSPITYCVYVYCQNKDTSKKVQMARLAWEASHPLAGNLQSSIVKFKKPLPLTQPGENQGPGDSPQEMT
Bfl-1 A1 inh = inhibitors of the anti-apoptotic protein A1, read as caspase activation; MEF A1-2A-BIM cells, Caspase-Glo 3/7 luminescence, 3 h; percent of clofoctol response, vehicle zero; caspase activation, % (concentration not given with the values); actives 0.066% (n = 330,000);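 active means over half of replicate activation scores above 10%, or exactly half above 10 with the replicate mean above 10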;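 further: wells of about 30 µL received 50 nL stock; many hits fall short of the cut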
Beta2AR agonist = human beta-2 adrenergic receptor agonism by FAP | response, % (no concentration beside the values) | actives 0.43% (n = 340,000) | Am2.2-beta2AR cells, FAP receptor internalization, flow cytometry; reference of the scale not given here | AID 504454 | P07550;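 active means response above a set limit, near 3 SD of response in nonfluorescent compounds, cut at about 42% in these data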;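 further: stock transfer was 100 nL into about 11 µL; a reference agonist was the positive control; negative values mostly stem from fluorescent compounds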
rRNA inh HTS OD600 = also measured in rRNA inh HTS; calls as there; OD600 change, %; measured here: OD600 growth;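 optical density of the mix in the first replicate; 0 = DMSO median and -100 = no signal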
rRNA inh HTS RFP = recorded beside rRNA inh HTS, whose call it bears; RFP signal change, %; measured here: RFP humanized mutant strains;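 first replicate; 0 = DMSO median and -100 = no signal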
Active calls of the source: *; / = not tested or not shown.

SMILES	T cruzi repl	rRNA inh HTS	rRNA inh HTS OD600	rRNA inh HTS RFP	Calb FLC	Beta cell apopt	ALR inh	LANA-H2A inh	Bfl-1 A1 inh	Beta2AR agonist
COc1ccccc1CNC(=O)CN(Cc1ccc(Cl)cc1)S(C)(=O)=O	0	-20	-24	-3.7	1	1	-1	-5.7	-0.1	-1
CC(=O)Nc1ccc(S(=O)(=O)N2CCN(c3cc4c(cc3[N+](=O)[O-])n(C)c(=O)n4C)CC2)cc1	-22	1	-4	2.9	-5	-15	-2	1.1	0.0	5
COc1cc(OC)cc(C(=O)NCc2ccc(-n3cccc3)cc2)c1	7	8	6	-4.1	14	-1	-12	-0.2	0.7	-10
CC(NC(=O)COC(=O)c1cc(=O)c2ccccc2o1)c1ccccc1 (configuration not stated)	/	13	13	-1.5	/	-1	0	2.0	0.2	-6
COCCSc1ccccc1C(=O)Nc1ccc(S(=O)(=O)N2CCOCC2)cc1	-1	5	-2	1.6	-3	-2	-9	3.4	-0.7	5
CC(=O)Nc1ccc(NC(=O)C(Cc2ccccc2)NC(=O)C2CCC(C)CC2)cc1 (configuration not stated)	-14	/	/	/	4	-2	-6	1.4	-0.1	0
Cc1nc2ccc(S(=O)(=O)Nc3ccc(-c4nc5cccnc5s4)cc3)cc2s1	-7	-1	-18	19	-7	5	/	-1.0	0.2	-14
COc1ccc(Cl)cc1-c1nc(SCC(=O)NCC2CCCO2)n[nH]1 (configuration not stated)	/	/	/	/	/	-4	-2	-7.5	-0.1	2
COc1ccc(C(=O)NCCS(=O)(=O)NC(C)c2ccccc2)cc1 (configuration not stated)	0	3	2	0.3	-2	4	0	-2.5	0.5	1
COCc1cc(C)nc2sc(C(=O)Nc3ccccc3OC)c(N)c12	-10	-10	-2	-2.2	4	7	2	1.2	-0.2	-13
N#C/C(=C\c1ccc(-c2cccc([N+](=O)[O-])c2)o1)C(=O)Nc1nc(-c2cccs2)cs1	2	4	10	4.1	-1	5	2	-1.8	-1.1	4
COC(=O)CCC(=O)OC1(C)C(=O)C2=COC(c3ccc(OC)cc3)=CC2=C(Br)C1=O (configuration not stated)	1	/	/	/	1	-7	20	-2.5	-2.0	/
Cc1occc1C(=O)NNC(=S)Nc1cccc([N+](=O)[O-])c1	-12	-19*	1.7*	-2.2*	-7	4	98*	-4.8	0.4	-14
Cc1ccc(C)c(S(=O)(=O)NC2CCS(=O)(=O)C2)c1 (configuration not stated)	-7	23	8	5.2	-5	-9	-1	-1.1	0.3	8
COC(=O)N/N=C/c1cc(Cl)c(OCc2ccc(F)cc2)c(OC)c1	-14	/	/	/	0	5	-1	-0.9	-0.6	-11
Cc1ccc(C2=N/C(=C\c3cccnc3)C(=O)O2)cc1	-11	/	/	/	30	-1	0	4.4	0.8	-1
COc1ccc(/C=N/NC(=O)c2c(C)nc3ccc(Br)cn23)cc1OC	-4	8	6	0.0	4	7	-2	0.6	0.0	-8
O=C(N1CCOCC1)N1CCN(Cc2ccccc2)CC1	-18	15	3	1.1	-17	1	-11	1.7	0.0	-2
N/C(=N/O)c1nc(N2CCCCC2)nc(N2CCCCC2)n1	2	/	/	/	5	-4	8	0.4	0.0	-1
O=C(CCC(=O)c1cccs1)NCC(c1ccc(F)cc1)N1CCOCC1 (configuration not stated)	/	-2	6	0.4	/	-3	-2	-3.8	0.4	0

Reprinted at random: five entries already listed.
SMILES	T cruzi repl	rRNA inh HTS	rRNA inh HTS OD600	rRNA inh HTS RFP	Calb FLC	Beta cell apopt	ALR inh	LANA-H2A inh	Bfl-1 A1 inh	Beta2AR agonist
O=C(CCC(=O)c1cccs1)NCC(c1ccc(F)cc1)N1CCOCC1 (configuration not stated)	/	-2	6	0.4	/	-3	-2	-3.8	0.4	0
COc1ccccc1CNC(=O)CN(Cc1ccc(Cl)cc1)S(C)(=O)=O	0	-20	-24	-3.7	1	1	-1	-5.7	-0.1	-1
COCCSc1ccccc1C(=O)Nc1ccc(S(=O)(=O)N2CCOCC2)cc1	-1	5	-2	1.6	-3	-2	-9	3.4	-0.7	5
N/C(=N/O)c1nc(N2CCCCC2)nc(N2CCCCC2)n1	2	/	/	/	5	-4	8	0.4	0.0	-1
CC(NC(=O)COC(=O)c1cc(=O)c2ccccc2o1)c1ccccc1 (configuration not stated)	/	13	13	-1.5	/	-1	0	2.0	0.2	-6

Further entries:
SMILES	T cruzi repl	rRNA inh HTS	rRNA inh HTS OD600	rRNA inh HTS RFP	Calb FLC	Beta cell apopt	ALR inh	LANA-H2A inh	Bfl-1 A1 inh	Beta2AR agonist
O=C(Cn1cnc2cc([N+](=O)[O-])ccc2c1=O)Nc1ccccc1-c1ccccc1	58*	2	2	-1.6	-1	2	-7	1.1	0.0	-6
C=CCN(c1ccccc1)S(=O)(=O)c1cccc(C(=O)NNC(=O)c2ccccc2O)c1	-2	0	0	-2.4	-10	32	64	0.7	0.4	3
CCOC(=O)c1c(NC(=O)CSc2ncccn2)sc(C(=O)NC)c1C	9	1	6	1.6	6	15	-1	0.5	-0.2	-1
N#Cc1ccc(NC(=S)NCCN2CCOCC2)cc1	-2	1	5	-0.3	-6	-5	1	-0.5	-0.2	-3
C=CCc1cc(/C=C/c2nc(O)c([N+](=O)[O-])c(=O)[nH]2)cc(OC)c1O	-12	-1	14	2.2	-9	-1	82*	-3.0	0.1	-3
CCCCCCCCn1c2c(c(=N)c3c1CCC3)CCCC2	42	-57	-80	-22	36	100*	-6	2.8	-0.4	-3
Cc1ccc(N(Cc2ccccc2)C(=O)c2ccc(F)cc2)cc1	15	-45	-64	-5.0	-5	0	3	2.7	-3.5	3
CCn1c(CN2CCN(c3ccc(Cl)cc3)CC2)nc2ccccc21	27	/	/	/	-12	-5	96*	4.3	0.8	-6
COc1ccc2[nH]c(=O)c(CN(C(=O)c3ccco3)C3CCCCC3)cc2c1	3	/	/	/	1	0	-15	-5.5	-0.1	-3
O=C(O)CNC(=S)NCc1ccccc1	-11	14	12	2.3	-19	-2	-1	-0.9	-0.3	-3
CC1=C(C(=O)Nc2ccc(C)cc2)C(c2cccs2)NC(=S)N1 (configuration not stated)	-1	8	2	-1.4	12	-9	-3	-1.4	0.2	7
C(=N\Nc1nccc(-c2cccnc2)n1)/c1ccccc1	1	-4	-8	-3.3	-6	1	-23	7.6	-0.9	-8
COc1ccc(CCN(Cc2ccccn2)C(=S)Nc2ccc(C)cc2)cc1OC	1	-15	-10	-0.8	0	-6	1	2.2	0.0	1
O=C(CSc1nnc2ccccn12)Nc1cccc(-c2nc3ccccc3s2)c1	-2	20	9	0.3	-5	6	1	0.9	-6.0	-17
O=Cc1cnc(N2CCOCC2)nc1	-4	/	/	/	-2	-14	-7	-1.4	1.1	13
COC(=O)CCNC(=O)c1nn(Cc2ccccc2)c(=O)c2ccccc12	2	-2	4	-2.7	-7	/	-7	-4.4	0.3	-4
CCC(CC)c1nnc(NC(=O)CCCN2C(=O)c3ccccc3C2=O)s1	-1	/	/	/	1	-3	0	3.0	1.1	-1
CCn1cc([N+](=O)[O-])c(C(=O)N2N=C(c3cccc4ccccc34)CC2c2ccccc2O)n1 (configuration not stated)	29	/	/	/	-7	1	-4	-6.5	-0.5	6
CCOc1ccccc1N1CCN(C(=O)c2ccc(NS(=O)(=O)c3ccc4[nH]c(=O)[nH]c4c3)cc2)CC1	-2	-1	-6	5.4	/	-2	19	-1.3	-0.4	-2
CCCc1ccc(OCc2ccc(C(=O)OC)o2)c(OC)c1	-1	-19*	-13*	6.5*	-1	0	2	0.3	-0.7	8
O=C1Nc2ccccc2C1(O)Cc1ccccn1 (configuration not stated)	-7	10	5	1.9	1	2	/	-9.5	-0.6	2
CCCNC(=O)c1ccccc1NC(=O)Nc1ccccc1C	-9	/	/	/	-9	2	-1	1.0	0.0	-2
CCc1ccc[n+](-c2[nH]c(=O)sc2/C=N/NC([S-])=Nc2ccccc2)c1	-21	2	6	0.0	4	-18	5	19	0.2	-9
Cc1ccccc1NC(=S)NCCSc1ccc(Cl)cc1	27	-51	-74	-26	-31	1	-10	5.7	-0.8	0
CCOc1ccc(OCCn2nnc3ccccc3c2=O)cc1	-11	2	3	-1.4	-26	-3	-9	1.6	-6.4	-8
COc1ccccc1CCNC(=O)c1nc(-c2cccs2)no1	4	-13	-10	1.9	6	-5	-16	1.5	-0.4	-4
COc1ccc([N+](=O)[O-])cc1N(CC(=O)Nc1ccccc1C(=O)NC(C)C)S(C)(=O)=O	1	15	3	-7.6	5	-1	2	-4.3	-0.8	-1
CC1(C)CC(N2CCN(CCO)CC2)=CC(=S)N1	-6	7	14	-2.0	5	-1	26	-2.5	0.3	-16
Cc1nc(N2CCN(Cc3nc4ccccc4[nH]3)CC2)c2oc3ccccc3c2n1	25	/	/	/	23	9	-4	1.2	0.1	10
Cc1ccc(S(=O)(=O)/N=C/c2c(O)ccc3ccccc23)cc1	3	12	6	3.5	16	0	-52	7.5	0.6	-3
CCc1nc(SCC(=O)Nc2ccc(N(C)C)cc2)n[nH]1	37	5	7	-0.3	-8	/	98*	-2.5	-0.4	-7
CCOC(=O)C1(CC2CC2)CCN(Cc2cn[nH]c2-c2ccccc2)CC1	22	8	7	-3.8	9	-3	4	0.1	1.1	0
CC1=C[C@H]2Cc3cc(C)cc(C)c3S(=O)(=O)[C@@H]2C=C1	13	/	/	/	-55	0	49	-0.3	-0.2	-5
Cc1ccc2nc(-c3ccncc3)cc(C(=O)Nc3ccc4c(c3)OCCO4)c2c1	14	6	9	10.0	7	22	-21	2.5	-0.8	8
CCN(C(=O)c1ccnc(C(C)(C)C)c1)c1ccccc1	-5	-34*	-12*	-3.1*	11	-3	1	-0.1	-0.7	-1
Cc1ccccc1OCCC(=O)OCC(=O)c1c(N)n(CC(C)C)c(=O)n(C)c1=O	-28	5	13	-1.6	-7	0	/	-0.1	-0.3	2
CC1CC(C)CN(C(=O)CSc2nnc(-c3ccc(Cl)cc3)o2)C1 (configuration not stated)	5	-1	1	-0.6	4	-7	/	1.9	1.1	-7
Cc1ccc(NC(=O)C/C(N)=N/OC(=O)Nc2cccc(C)c2)cc1	/	-6	0	-6.4	/	0	7	-2.6	-0.9	9
CCn1c(C)nc2cc(C(=O)NN=C(C)c3ccc(C#N)cc3)ccc21	/	6	11	6.9	/	-5	/	-0.1	-0.1	2
CCOC(=O)[C@H]1[C@H]2COc3cc(OC)ccc3[C@@H]2N2C(=O)[C@@H](CO)NC(=O)[C@@]12C	/	/	/	/	/	-7	-8	0.3	-0.2	/

Taken from the results shown for reference:
SMILES	T cruzi repl	rRNA inh HTS	rRNA inh HTS OD600	rRNA inh HTS RFP	Calb FLC	Beta cell apopt	ALR inh	LANA-H2A inh	Bfl-1 A1 inh	Beta2AR agonist
CCn1c(C)nc2cc(C(=O)NN=C(C)c3ccc(C#N)cc3)ccc21	/	6	11	6.9	/	-5	/	-0.1	-0.1	2
CCOC(=O)[C@H]1[C@H]2COc3cc(OC)ccc3[C@@H]2N2C(=O)[C@@H](CO)NC(=O)[C@@]12C	/	/	/	/	/	-7	-8	0.3	-0.2	/

From PubChem

A portion of the library (hit frequency here may not be typical).
